# High-throughput results from PubChem BioAssay.
# Bfl-1 A1 inh = inhibitors of the anti-apoptotic protein A1, read as caspase activation; MEF A1-2A-BIM cells, Caspase-Glo 3/7 luminescence, 3 h; percent of clofoctol response, vehicle zero; caspase activation, % (test concentration not listed); hit rate 0.066% among 330,000; AID 2462;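 active means over half of replicate activation scores above 10%, or exactly half above 10 with the replicate mean above 10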;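 further: wells of about 30 µL received 50 nL stock; many hits fall short of the cut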
# MLL AF4-AF9 inh = blocks AF4 peptide binding to human AF9. hit rate 0.47% among 350,000. AlphaScreen, biotin-AF4 peptide binding to FLAG-AF9. inhibition, % at 10 µM. AID 651704;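 active means every replicate reaching a set inhibition limit, whatever the replicate mean, cut at about 25% in these data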;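 further: 0% = plate neutral control median and 100% = total signal loss; the record names both 10 and 1 µM as test concentration; the first replicate is given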
# UCH37 inh = inhibitors of human deubiquitinating enzyme UCH37; Q9Y5K5; purified proteasome/UCH37, Ub-AMC cleavage fluorescence; inhibition, % (concentration not given with the values); hit rate 0.33% among 330,000; AID 588478;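 active means mean of two replicates above 20%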;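 further: 0% = compound-free wells with enzyme and 100% = wells lacking proteasome; stock transfer was 100 nL into about 20 µL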
# Target sequence (Q9Y5K5 whole entry, looked up): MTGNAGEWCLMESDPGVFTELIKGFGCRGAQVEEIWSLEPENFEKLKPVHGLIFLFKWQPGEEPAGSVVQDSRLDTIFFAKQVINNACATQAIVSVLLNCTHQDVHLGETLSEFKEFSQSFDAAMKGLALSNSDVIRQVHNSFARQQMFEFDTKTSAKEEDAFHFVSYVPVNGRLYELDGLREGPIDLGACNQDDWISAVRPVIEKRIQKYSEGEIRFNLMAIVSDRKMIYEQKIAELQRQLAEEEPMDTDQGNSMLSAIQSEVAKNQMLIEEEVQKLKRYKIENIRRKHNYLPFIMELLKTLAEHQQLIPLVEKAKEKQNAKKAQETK
#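 Signal – fluorescence, ex 355 nm, em 460 nm · System – Proteasome-bound UCH37 · Input – 0.15 nM proteasome as dispensed · Timing – 30 min preincubation with enzyme, 25 min cleavage at room temperature · Read-out basis – percent inhibition of cleavage signal versus uninhibited and no-proteasome wells · Medium – Tris-HCl pH 7.4 with ATP-MgCl2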
# Ecoli growth = inhibitors of Escherichia coli growth | OD600, 23 h; hits give low values | OD600 absorbance (concentration not given with the values) | hit rate 0.21% among 330,000 | AID 1053175;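 active means OD600 absorbance below the run mean of sample wells minus 3.6 SD, in any replicate, cut at about 0.56 in these data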;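 further: stock transfer was 300 nL into about 60 µL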
# Beta cell apopt = blocks beta cell apoptosis. hit rate 0.8% among 300,000. protection from apoptosis, % (no concentration beside the values). INS-1E cytokine-induced death, ATP luminescence, 48 h; percent of positive-control rescue, neutral wells zero;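 active means all replicates at 75% or more, or half of them and the mean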;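 further: 0% = cytokine-treated negative control wells and 100% = positive control rescue; higher means more ATP so stronger rescue from cytokine killing; wells of about 40 µL received 100 nL stock; the first replicate is given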
# FGF22 binding = shifts melting point of recombinant human FGF22; hit rate 1.5% among 340,000; calls only at 9.99 µM; AID 651658; recombinant FGF22 thermal shift, SYPRO orange fluorescence; percent of sucrose octasulfate shift, DMSO zero;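 active means melting point raised past a set limit in the mean and every replicate; three in four hits are not shown here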
# Target sequence (Q9HCT0 whole entry, looked up): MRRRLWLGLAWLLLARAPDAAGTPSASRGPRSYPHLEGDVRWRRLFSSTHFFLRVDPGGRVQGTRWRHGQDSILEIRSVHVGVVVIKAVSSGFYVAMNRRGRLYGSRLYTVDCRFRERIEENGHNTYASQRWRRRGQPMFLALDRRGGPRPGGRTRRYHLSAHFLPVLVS
# T cruzi repl = T. cruzi replication inhibition; T. cruzi beta-gal in NIH3T3, luminescence, 90 h; inhibition, % (concentration not given with the values); hit rate 1.4% among 300,000;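 active means mean inhibition across valid replicates above about 55%, limit read from the data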;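 further: signal also drops with host cell toxicity which is not excluded here; 0% = plate median of DMSO wells and 100% = zero luminescence signal; higher percent means less beta-gal luminescence so fewer parasites; stock transfer was 50 nL into about 50 µL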
# rRNA inh HTS = selective bacterial rRNA inhibition in E. coli | E. coli WT GFP vs humanized-ribosome RFP mutants, fluorescence, 24 h; hits give low values; DMSO median 0, no signal -100 | GFP signal change (wild-type ribosome), % (concentration not given with the values) | hit rate 1.6% among 350,000;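 active means significant combined selectivity score with lowered wild-type GFP, culture density cut under 30%, mutant RFP and density less affected; inactive means any of these conditions unmet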; further: one replicate is shown; some compounds called inactive have numbers as strong as hits
# rRNA inh HTS OD600 = further read-out of rRNA inh HTS, marked with its call; OD600 change, %; measured here: OD600 growth;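 optical density of the mix in the first replicate; 0 = DMSO median and -100 = no signal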
# rRNA inh HTS RFP = recorded beside rRNA inh HTS, whose call it bears; RFP signal change, %; measured here: RFP humanized mutant strains;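 first replicate; 0 = DMSO median and -100 = no signal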
# Starred values were filed as active, the others as inactive; i = inactive; . = no result given; & = joins results of further samples. Only part of the results is shown; the hit share may differ from the screen's.
SMILES,Bfl-1 A1 inh,MLL AF4-AF9 inh,UCH37 inh,Ecoli growth,Beta cell apopt,FGF22 binding,T cruzi repl,rRNA inh HTS,rRNA inh HTS OD600,rRNA inh HTS RFP
O=[N+]([O-])c1ccc(N2CCN(C(=S)Nc3cccc(F)c3)CC2)cc1,1.1,4.7,5.2,0.7,7,i,-40,-10,-11,-2.7
COc1cccc(CCNC(=O)CC2C(=O)NCCN2Cc2ccc(C)o2)c1 (centres undefined),0.2,-1.0,-2.8,0.69,-9,i,-8,14,11,4.8
O=C(c1cccc2ccccc12)N1CCN(CC2CC=CCC2)CC1 (centres undefined),-0.8,-27,5.9,0.68,-2,i,24,4,-5,-0.4
COc1ccc(S(=O)(=O)Nc2cccc3c2O[C@H](CN(C)S(=O)(=O)c2ccc(Cl)cc2)[C@H](C)CN([C@H](C)CO)C3=O)cc1,-0.9,.,1.5,.,1,i,.,0&-1,0&-12,1.5&3.9
CCN1CCCC1CNC(=O)CSc1cc(=O)n(C)c2cc(Cl)ccc12 (centres undefined),1.8,.,-0.6,0.71,-9,.,3,.,.,.
C#CCOCCOCCOCCNc1nc(N2CCN(C(=O)[C@H]([C@@H](C)CC)n3cc([C@@H](N)CO)nn3)CC2)nc(N2CCN(C(=O)[C@H](CCCCN)n3cc([C@@H](N)CO)nn3)CC2)n1,0.1,2.3,1.3,.,2,i,.,6,15,2.1
CCOC(=O)c1c(C)[nH]c(C(=O)OCc2ccc(C)cc2)c1C,0.4,-1.9,3.7,0.73,1,i,-2,-10,-8,-1.3
CC(C)c1ccc(Nc2ncccc2C#N)cc1,-7.9,.,-4.5,0.73,12,.,-11,.,.,.
CCc1cccc(NC(=O)CCC(=O)O)c1,0.9,-3.3,0.0,0.65,-1,i,-10,.,.,.
Cn1c(=O)c2c(nc(CN3CCC(C(N)=O)CC3)n2CCc2ccccc2)n(C)c1=O,0.3,.,-0.8,0.69,-8,.,0,.,.,.
O=C(O)CCCC(=O)Nc1cc([N+](=O)[O-])ccc1O,-0.2,-3.3,10,0.65,-8,.,9,12,21,1.9
CCCOc1cc(C)c(S(=O)(=O)n2nnc3ccccc32)cc1C,-0.4,.,1.8,0.69,.,.,1,.,.,.
CC(NC(=O)c1ccccc1)C(=O)NNC(=O)c1ccccc1Cl (centres undefined),2.9,0.1,0.5,0.7,-2,i,.,12,22,1.2
Cc1ccc(C(=O)N/N=C/c2ccc3c(c2)OCO3)o1,-6.0,-1.3,.,.,9,i,-6,2,5,-0.3
CN1CCN(c2ccccc2NC(=O)c2cc(Br)ccc2Cl)CC1,0.1,.,0.7,0.66,0,.,7,.,.,.
CCCCC(CC)C1OCC(CN2CCCC2)O1 (centres undefined),-0.8,.,3.2,0.67,-3,.,18,.,.,.
Cc1ccc(S(=O)(=O)N2CCOCC2)cc1NC(=O)COC(=O)C1=COCCO1,0.0,-1.4,-1.2,0.66,-2,i,-6,10,16,2.4
CCOC(=O)CNC(=O)Cn1cnc2c(cnn2-c2ccc(C)cc2)c1=O,0.3,-4.1,5.6,0.67,1,i,-8,-5,10,-5.6
CCCCn1c(=O)c(CCC(=O)OCC(=O)Nc2ccc(C)c(Cl)c2)nc2ccccc21,-0.3,.,-0.5,0.68,-8,.,4,.,.,.
CCCc1cc(=O)oc2cc(C)cc(OC(C)C(=O)NCCCn3ccnc3)c12 (centres undefined),-1.0,2.2,-100,0.71,-2,i,9,-5,-1,3.1
CCC1CCCCN1CCCNC(=O)COc1cc(=O)n(C)c2ccccc12 (centres undefined),0.3,.,-1.6,0.74,-1,.,2,.,.,.
NC(=O)C1Cc2ccccc2CN1S(=O)(=O)c1ccc(Cl)s1 (centres undefined),0.6,-0.3,2.0,0.71,-4,i,-12,4,14,1.1
COC(=O)c1ccccc1NC(=O)C1CCCCC1C(=O)O (centres undefined),1.2,.,-2.9,0.68,-1,.,-12,.,.,.
N#CC(C(=O)NCc1ccco1)c1nc2ccccc2nc1N1CCOCC1 (centres undefined),-0.2,.,4.6,0.74,4,.,20,-23,-24,12
CC1(C)SC2c3ccccc3C(=O)N2[C@@H]1C(=O)NCc1ccco1 (some centres undefined),0.5,.,3.7,0.8,-8,.,-7,.,.,.
CCC(=O)OCCn1c(=O)c2cc3c(=O)n(CCOC(=O)CC)c(=O)c3cc2c1=O,0.9,.,2.8,0.72,-13,.,.,.,.,.
CCCC(c1nnnn1CS(=O)(=O)c1ccc(C)cc1)N1CCN(CC)CC1 (centres undefined),0.3,1.0,4.7,0.68,-7,.,1,15,15,3.0
Cc1ccc(Oc2ccc(OCC(=O)NC3CCS(=O)(=O)C3)cc2)cc1 (centres undefined),-0.1,-5.0,1.4,0.65,-7,i,-13,-2,-10,-0.7
Cc1ccc(-c2csc3ncnc(N4CCN(C(=O)c5ccco5)CC4)c23)cc1,-1.4,0.8,2.5,0.71,3,i,.,-53,-74,-8.7
COc1cccc(/C=N/NC(=O)c2ccc(=O)[nH]n2)c1O,-0.8,-21,.,.,-4,i,-3,9,7,-2.8
Cc1onc(-c2ccc(Cl)cc2)c1-c1ccnn1S(=O)(=O)c1ccc(Cl)cc1,0.3,0.6,3.2,0.71,21,i,26,-6,-6,-5.3
c1ccc(-c2onc3c2CCCC3)cc1,-1.0,.,0.6,0.7,1,.,-10,.,.,.
COc1ccc(N2CCN(C(=O)COC(=O)Cc3c(F)cccc3Cl)CC2)cc1,0.5,12,3.4,0.71,3,i,-1,-9,-28,0.5
S=c1[nH]nc(-c2ccccn2)n1/N=C/c1ccco1,-1.1,0.2,.,.,.,i,-8,11,12,-0.4
N/C(=N\OC(=O)CCc1ccccc1)c1ccccc1Cl,-0.1,-2.3,1.9,0.69,2,i,-5,-12,2,3.6
CCOP(=O)(OCC)C(Nc1cccc(C)c1)c1ccc(F)cc1 (centres undefined),0.1,-5.0,5.5,0.67,-8,i,1,-4,-5,0.0
O=C(CN1CCc2cc3c(cc2C1)OCCCO3)Nc1cccc([N+](=O)[O-])c1,0.9,4.7,5.5,0.66,3,i,9,-7,8,-2.8
CCOC(=O)CSc1nc2ccccc2n1C(=O)OCC,0.0,.,6.2,0.7,3,.,-15,.,.,.
CC[C@]12C(=O)N(C)C[C@H]([C@@H]3C(=O)N(Cc4ccccc4)C(=O)[C@@H]31)N2C(=O)c1ccc(C(C)(C)C)cc1,.,3.6,1.3,.,.,i,.,-15,-12,5.1
Cc1ccc(-c2noc(CNCCCN(C)C)n2)cc1,-1.0,.,5.9,0.7,3,.,15,.,.,.
O=C(CCC(=O)N1CCSc2ccccc21)NCc1cccc(Cl)c1,-0.3,-2.7,3.3,0.68,-1,i,7,-13,-26,-1.1
CSc1nc2ccccc2n1CC(=O)Nc1ccccc1,-0.4,.,-1.5,0.69,1,.,-4,.,.,.
Cc1nn(CC(=O)NCCCN2CCC(N3CCCCC3)CC2)c(=O)c2cc(-c3ccccc3)nn12,0.8,17,3.8,0.67,7,i,35,1,3,1.9
Cc1cc(NC(CC(C)C)C(=O)O)nc(Cc2ccccc2)n1 (centres undefined),-0.2,.,-1.3,0.72,-2,.,-11,.,.,.
COC(=O)N/N=C/c1ccc(OC(=O)/C=C/c2ccco2)cc1,0.2,-0.3,.,.,-5,i,-2,.,.,.
O=C1c2ccncc2C(=O)N1CO,2.1,.,4.5,0.74,-1,.,-5,.,.,.
O=C(O)CCCC(=O)Nc1cccc(C(F)(F)F)c1,1.8,.,0.2,0.67,5,.,0,.,.,.
CSc1ccccc1NC(=O)CN(C)C(=O)c1ccc(NC(=O)c2cccs2)cc1,-0.7,0.3,0.3,0.67,2,i,.,-28,-32,-3.8
O=P1(O)C=C(c2ccccc2)NC(c2ccccc2)=C1,0.4,6.6,0.5,0.7,-2,i,-2,14,12,0.7
Cc1ccc(C)c(N2CCN(C(c3ccc(N(C)C)cc3)c3nnnn3C(C)(C)C)CC2)c1 (centres undefined),0.0,.,1.6,0.71,-4,.,-7,.,.,.
# Additional entries follow.
SMILES,Bfl-1 A1 inh,MLL AF4-AF9 inh,UCH37 inh,Ecoli growth,Beta cell apopt,FGF22 binding,T cruzi repl,rRNA inh HTS,rRNA inh HTS OD600,rRNA inh HTS RFP
Cc1noc(/C=C/N(C)C)c1S(=O)(=O)N1CCCC(C(=O)NCCC2=CCCCC2)C1 (centres undefined),-0.4,2.5,15,0.79,-3,i,8,13,13,-0.1
COc1ccc(-c2n[nH]c(=S)n2N)c(OC)c1,0.0,-3.5,1.4,0.69,1,.,4,18,11,3.0
Cn1c(=O)c(=O)n(C)c2cc(N3CCOCC3)c(NS(=O)(=O)c3ccc(F)c(Cl)c3)cc21,-0.4,1.5,7.9,0.68,-2,i,-14,-3,2,3.9
CCc1ccc(N=CC2=C(O)CC(c3ccco3)CC2=O)cc1 (centres undefined),-1.0,.,4.5,0.76,-15,.,-22,.,.,.
Cc1cccc(-n2c(C)nc3ccsc3c2=O)c1,1.5,-2.1,2.2,0.71,5,i,15,10,-3,-0.7
CC[C@@]12C(=O)N(c3cccc(F)c3)C(=O)N1[C@H](c1cccc(C)c1)[C@@H]1C(=O)N(Cc3ccccc3)C(=O)[C@@H]12,1.2,-1.2,5.5,.,2,i,16,-1,-8,-12
Oc1ccc(-c2cnc(-c3ccc(O)cc3)nc2)cc1,-3.4,0.5,.,.,-6,i,-14,-10,-5,2.9
CC(C)c1nnc(NC(=O)CCS(=O)(=O)c2ccccc2)s1,-0.1,-2.4,1.6,0.65,-19,i,-7,4,-1,-1.4
CCCSc1oc(-c2ccco2)nc1S(=O)(=O)c1ccccc1,0.1,.,3.1,0.67,2,.,25,.,.,.
CC(=O)c1cnc(Nc2nc(C)c3ccccc3n2)nc1C,0.0,.,4.3,0.69,3,.,-10,.,.,.
Fc1cc(F)cc(-c2c(-c3ccccc3)ncc3ccc(F)cc23)c1,-0.3,-2.3,4.2,0.69,-2,i,.,0,-16,7.2
O=C(NCc1ccccc1)c1ccc(CS(=O)(=O)Cc2ccc(F)cc2)o1,0.4,0.5,2.7,0.71,3,i,-1,13,-4,0.1
COC(=O)c1nnn(CC(=O)NC(=O)Nc2c(C)cccc2C)c1C(=O)OC,-0.1,.,6.9,0.66,0,.,0,.,.,.
CC1CCCC(C)N1C(=O)COC(=O)c1cccc(S(=O)(=O)N(C)c2ccccc2)c1 (centres undefined),.,2.8,-0.9,0.66,.,i,.,-14,-28,2.2
CC(C)[C@H](NC(=O)c1ccc(Cl)cc1Cl)C(=O)NNc1cccc(C(=O)O)c1,0.2,-4.1,.,.,-3,i,.,19,21,6.3
